High-throughput results as filed in PubChem.
VDR inh: vitamin D3 receptor (human) inhibition. 400,000 compounds, 0.93% hits. Potency, µM, without a hit: max response, negative = inhibition, actives largely listed as inhibitors. VDR-SRC2-3 peptide fluorescence polarization, 2 h; active = well fitted inhibition curve with a large enough effect; inconclusive = small, poorly fitted or top-dose-only effect, or another doubt; inactive = no such curve, though single readings can be large or run the other way; also: series mostly up to about 120 µM
Target sequence (P11473 whole entry, looked up): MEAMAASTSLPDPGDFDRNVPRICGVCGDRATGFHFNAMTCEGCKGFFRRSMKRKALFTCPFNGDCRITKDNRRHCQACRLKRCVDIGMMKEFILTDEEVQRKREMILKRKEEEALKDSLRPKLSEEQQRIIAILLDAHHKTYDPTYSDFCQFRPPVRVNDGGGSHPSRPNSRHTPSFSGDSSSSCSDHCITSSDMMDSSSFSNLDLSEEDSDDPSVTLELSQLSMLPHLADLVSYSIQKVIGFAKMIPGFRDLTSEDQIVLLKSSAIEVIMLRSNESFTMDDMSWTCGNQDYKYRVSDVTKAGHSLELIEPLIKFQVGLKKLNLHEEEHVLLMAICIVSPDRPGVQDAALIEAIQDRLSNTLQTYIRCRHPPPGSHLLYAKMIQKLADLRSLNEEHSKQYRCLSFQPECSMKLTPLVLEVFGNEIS
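Inhibition of the VDR/SRC2-3 peptide interaction is quantified by fluorescence polarization. Compounds (23 nl, pintool) incubate with the reagents for 2 hours at ambient room temperature.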
Starred values were filed as active, the others as inactive; ? = inconclusive; & = joins results of further samples. % is scaled to controls: 0 for no effect and ±100 for the full control effect; potency is read from the fitted curve at half-maximal effect.

SMILES	VDR inh
CCOC(=O)c1c(C)[nH]c(C(=O)COC(=O)c2c(CC)noc2C)c1C	6%
O=C1NC(=S)SC1=C1CCCCCC1	?
CC1(COc2ccc(C[C@H]3SC(=O)NC3=O)cc2)CCCCC1	-12%
O=C(NCc1ccccc1F)C1CCCN1C(=O)NCc1ccccc1 (stereo not drawn)	1%
CC1=NNC(=O)C1C(c1ccccc1)C(C#N)C#N (stereo not drawn)	-23%
CCCSCCCNC(=O)Cn1nc(CC)n2c(cc3c(OC)cccc32)c1=O	-12%
NC(=O)CC[C@H](NC(=O)c1ccc(F)cc1)C(=O)OCC(=O)Nc1c(F)c(F)c(F)c(F)c1F	0%
CN(C)C(CNC(=O)c1cccc(S(=O)(=O)N2CCN(c3ccc(F)cc3)CC2)c1)c1ccccc1 (stereo not drawn)	6%
CCOCCCNC(=O)CCc1ccc(S(=O)(=O)Nc2ccc(C)cc2)cc1	-2%
CC(C)CN(C(=O)COC(=O)CCc1nc2ccccc2s1)c1c(N)n(Cc2ccccc2)c(=O)[nH]c1=O	-10%
O=C(CSc1nc2ccccc2o1)Nc1ccccc1N1CCOCC1	10%
COc1cccc(-c2nc(CS(=O)(=O)CC(=O)Nc3ccccc3Cl)c(C)o2)c1	-5%
COc1ccccc1N1CCN(C(=O)Cn2ncc3c([nH]c4ccccc43)c2=O)CC1	-7%&10%
Cn1c2c(c(=O)n(C)c1=O)CN(Cc1ccco1)CN2	12%
CCOC(=O)N1CCC(NC(=O)c2cnn(-c3ccc(F)cc3F)c2C2CCN(C(=O)OC(C)(C)C)CC2)CC1	-1%

15 entries from above, reformatted:
mol | VDR inh
CCOC(=O)c1c(C)[nH]c(C(=O)COC(=O)c2c(CC)noc2C)c1C | 6%
O=C1NC(=S)SC1=C1CCCCCC1 | ?
CC1(COc2ccc(C[C@H]3SC(=O)NC3=O)cc2)CCCCC1 | -12%
O=C(NCc1ccccc1F)C1CCCN1C(=O)NCc1ccccc1 (stereo not drawn) | 1%
CC1=NNC(=O)C1C(c1ccccc1)C(C#N)C#N (stereo not drawn) | -23%
CCCSCCCNC(=O)Cn1nc(CC)n2c(cc3c(OC)cccc32)c1=O | -12%
NC(=O)CC[C@H](NC(=O)c1ccc(F)cc1)C(=O)OCC(=O)Nc1c(F)c(F)c(F)c(F)c1F | 0%
CN(C)C(CNC(=O)c1cccc(S(=O)(=O)N2CCN(c3ccc(F)cc3)CC2)c1)c1ccccc1 (stereo not drawn) | 6%
CCOCCCNC(=O)CCc1ccc(S(=O)(=O)Nc2ccc(C)cc2)cc1 | -2%
CC(C)CN(C(=O)COC(=O)CCc1nc2ccccc2s1)c1c(N)n(Cc2ccccc2)c(=O)[nH]c1=O | -10%
O=C(CSc1nc2ccccc2o1)Nc1ccccc1N1CCOCC1 | 10%
COc1cccc(-c2nc(CS(=O)(=O)CC(=O)Nc3ccccc3Cl)c(C)o2)c1 | -5%
COc1ccccc1N1CCN(C(=O)Cn2ncc3c([nH]c4ccccc43)c2=O)CC1 | -7%&10%
Cn1c2c(c(=O)n(C)c1=O)CN(Cc1ccco1)CN2 | 12%
CCOC(=O)N1CCC(NC(=O)c2cnn(-c3ccc(F)cc3F)c2C2CCN(C(=O)OC(C)(C)C)CC2)CC1 | -1%

Next part.
SMILES	VDR inh
N#C/C(=C/c1cn(Cc2ccccc2Cl)c2ccccc12)C(=O)Nc1cccc(Cl)c1	-15%
COc1ccc(NC(=O)CSc2nc3ccncc3[nH]2)c(OC)c1	-10%&19%
CCn1cc(C(=O)N(C)Cc2ccc(OC(F)F)cc2)c(=O)c2ccc(C)nc21	-8%
Cc1cc(C(=O)Cn2nnc(-c3ccc(Cl)cc3)n2)c(C)n1CC1CCCO1 (stereo not drawn)	-2%
O=C(Nc1nc2ccccc2[nH]1)C1CCCO1 (stereo not drawn)	6%
O=c1c2ccccc2nc2sc(Nc3cccc(Cl)c3)nn12	-17%
N#CCSc1ccccc1NC(=O)CN1C(=O)C(=O)N(Cc2ccccc2)C1=O	8%
CCn1c(SCC(=O)Nc2cc(C)c(Cl)cc2OC)nnc1-c1ccco1	3%
O=C(NC1CCCC1)C(c1ccc(F)cc1)N(C(=O)c1csnn1)C1CCCC1 (stereo not drawn)	-20%
Clc1ccccc1-c1nc(-c2cccnc2)no1	4%
COc1ccc(/C=N/Nc2ccc([N+](=O)[O-])cc2)cc1Cn1cc([N+](=O)[O-])cn1	-16%
Cc1ccccc1OCc1occc1C(=O)Nc1cccc(-n2cnnn2)c1	-16%
COc1ccc(CNC(=O)CCc2nc(-c3ccccc3F)no2)c(OC)c1	-19%
Cc1cccc(OCC(=O)NNC(=O)CCCCC(=O)NNC(=O)COc2cccc(C)c2)c1	11%
COC(=O)Cn1c(=O)c2c(nc3n2CC(C)CN3CCc2ccccc2)n(C)c1=O (stereo not drawn)	1%
CCc1nc2sc3ccccc3c(=O)c2c(=O)n1Cc1ccc(OC)cc1	-17%
CN(C)S(=O)(=O)c1ccc2oc(SCC(=O)c3c(N)n(C4CC4)c(=O)[nH]c3=O)nc2c1	-16%
N#Cc1ccc(CN2CCC3(CCNCC3)CC2)cc1	?
Cc1nc(N2CCN(C(=O)c3cnccn3)CC2)c2c3c(sc2n1)CC(C(C)(C)C)CC3 (stereo not drawn)	-2%
Cn1c(=O)n(C)c2cc(NC(=O)COc3ccc(F)cc3)ccc21	-1%
O=S(=O)(c1ccc2c(c1)OCCO2)N1CCC(n2nnc3cc(C(F)(F)F)ccc32)CC1	-23%
COc1ccc(OC)c2c(C)cc(N3CCN(C(=O)c4ccc(F)cc4)CC3)nc12	3%
COc1ccc(C2CC(C(F)(F)F)n3nc(C(=O)O)cc3N2)cc1OC (stereo not drawn)	-5%
Cc1ccc(-n2ncc3c2CCCC3NC(=O)CCc2cnccn2)cc1C (stereo not drawn)	2%
O=C1c2ccccc2C(=O)N1CCCOc1ccccc1	-13%
C=C(C)COc1ccc(-c2[nH]ncc2-c2ccc(OC)cc2)c(O)c1	6%
CN(c1ccccc1)S(=O)(=O)c1cccc(NC(=O)CSc2nnc(N)s2)c1	0%
COc1ccc(CN(CC(O)COCc2ccccc2)S(=O)(=O)c2ccccc2Br)cc1OC (stereo not drawn)	-20%
CC(C)(C)c1ccc(C(=O)N2CC(=O)Nc3ccc(F)cc3C2c2ccc(F)cc2)cc1 (stereo not drawn)	-14%
Cc1cccc(-n2c(=O)[nH]c3c(C(N)=O)nc(CC(C)C)nc32)c1	4%
c1coc(-c2nnc3sc(-c4cccs4)nn23)c1	-10%
Cn1c(SCC(=O)Nc2cccc(S(=O)(=O)NC3=NCCCCC3)c2)nnc1-c1ccncc1	-15%
CC(Sc1nc2ccccc2c(=O)n1CCc1ccc(S(N)(=O)=O)cc1)C(=O)NC(N)=O (stereo not drawn)	-1%
COc1ccc(NC(=O)CCN2C(=O)c3ccc([N+](=O)[O-])cc3C2=O)c(OC)c1	3%
COc1ccccc1NC(=O)c1cc2c(CO)cnc(C)c2oc1=Nc1ccc(OC)c(OC)c1	-10%
COCCNC(=S)N1CCN(C(c2ccccc2)c2ccccc2)CC1	2%
O=C(/C=C/c1ccco1)Nc1nc(-c2ccccn2)cs1	?
Cc1cc(N/N=C/c2ccc(O)cc2O)nc(-c2ccccc2O)n1	-5%
CCO[C@@H]1OC(C(=O)O)=C[C@H](c2cn(C(C)=O)c3ccccc23)[C@H]1CCCO	-5%
COc1ccc(CCNC(=O)c2cccc(NC(=O)CC3SC(N4CCCCC4)=NC3=O)c2)cc1OC (stereo not drawn)	-12%
COc1ccccc1-n1c(CNC(=O)c2ccc(S(=O)(=O)N3CCCCC3)cc2)n[nH]c1=S	-24%
COc1ccc(OCCN2CCOCC2)cc1	11%
CC(C)(C)OC(=O)N1CCC(c2c(C(=O)O)cnn2-c2ccccc2)CC1	-22%
Cc1cccc(C)c1NC(=O)C(C)N (stereo not drawn)	1%
c1ccc(Sc2ncnc3c2oc2ccccc23)cc1	20%
COc1ccccc1CNC(=S)Nc1ccc(F)cc1	-12%
O=C(NCc1ccc2[nH]c3c(c2c1)CCCC3)c1ccc(S(=O)(=O)N2CCOCC2)cc1	5%
O=C(NCCCN1CCOCC1)c1ccc(CNS(=O)(=O)c2ccc(F)cc2)cc1	5%
O=C(c1ccco1)N1CCCC(c2ccccc2)C1 (stereo not drawn)	-7%
COc1ccccc1CNC(=O)C1CC(=O)N(c2ccc(C)c(C)c2)C1 (stereo not drawn)	12%
Cn1ncc(C(=O)N=S(C)(=O)c2ccccc2)c1[N+](=O)[O-] (stereo not drawn)	-2%
Cc1cc([N+](=O)[O-])cc([N+](=O)[O-])c1NCC(C)C	8%
C/C(CCC(C)C)=N\NC(=S)NCc1ccccc1	-24%
Cc1nnc(C)n1N1C(=O)c2cccc3cccc(c23)C1=O	-18%
Cc1ccc(S(=O)(=O)Nc2cc3c(cc2C#N)OCO3)cc1C(N)=O	12%
O=C1Nc2c(c(=O)[nH]c(=O)n2-c2ccc(F)cc2)C1(NS(=O)(=O)c1ccccc1)C(F)(F)F (stereo not drawn)	5%
COc1ccc(NC(=O)C2COc3ccccc3O2)cc1 (stereo not drawn)	0%
Cc1ccnc(NC(=O)c2cccs2)c1	?
Cc1cc(C)nc(Sc2c(C)nn(-c3ccccc3)c2C)n1	10%
Cc1ccc(C(=O)c2oc3nc(C)cc(C)c3c2N)cc1	12%

Carrying on.
SMILES	VDR inh
COc1ccc2c3n([n+]([O-])c2c1)CCN=C3c1cc(Cl)c(N)c(Cl)c1	4%
CCN1CCN(CCNC(=O)c2cn(C(C)c3ccccc3F)nn2)CC1 (stereo not drawn)	?
Cn1cnnc1SCC(=O)Nc1cc(C(=O)O)cc(C(=O)O)c1	3%
CC(C)c1ccc(C(=O)Nc2ccc(-c3nc4ccccc4s3)c(Cl)c2)cc1	0%
CCOc1ccc(Br)cc1C1C(C(=O)Nc2ccccc2OC)=C(C)Nc2nnnn21 (stereo not drawn)	-10%
CS(=O)(=O)N(CC(=O)NCCSC1CCCCC1)c1ccccc1	11%
COc1ccc2c(c1)c1c(c(=O)n(-c3ccc(F)c(Cl)c3)c(=O)n1Cc1cccc(C)c1)n2C	6%
Cc1ccc(CNC(=O)c2ccc(NS(=O)(=O)c3c(C)noc3C)cc2)cc1	3%
Cn1c(SCC(=O)NC2(C#N)CCCCC2)nnc1-c1cccnc1	-20%
O=C(NCC1CCCO1)c1onc(CSc2ccc(F)c(F)c2)c1C(=O)O (stereo not drawn)	-11%
CCOC(=O)/C=C/COc1ccccc1[N+](=O)[O-]	-4%
CCCc1cc(=O)oc2cc(C)cc(OCC(=O)Nc3cccnc3)c12	3%
COc1ccc(NC(=O)Cn2c3ncccc3c(=O)n2-c2ccc(C)c(C)c2)c(OC)c1	7%
O=C(COC(=O)Cc1cccc(C(F)(F)F)c1)NCc1ccco1	-6%
Cc1ccsc1C(=O)NCc1ccc(F)cc1	-2%
COc1cccc(/C=C/c2nc3ccccc3c(=O)n2-c2ccc(C)c(C)c2)c1OC	19%
Cc1ccc(CNC(=O)c2cnn(-c3ccc(F)cc3F)c2C2CCN(C(=O)OC(C)(C)C)CC2)cc1	19%
Cc1cccc(OCC(O)CN2CCOCC2)c1 (stereo not drawn)	-27%
O=C(C1CC1)N1CCc2cc(S(=O)(=O)N3CCOCC3)ccc21	13%
C#CCN1C=CC(=O)[C@@H](OC(=O)Nc2ccc(Cl)cc2)[C@H]1c1ccccc1Br	8%
C=CCOc1ccccc1OCC(O)CNC(C)C (stereo not drawn)	7%
C=CCN1C(=O)c2ccc(C(=O)N(C)CC(=O)Nc3ccc(OCC)c(OCC)c3)cc2C1=O	7%
O=C(Nc1ccc(NC(=O)C2CC2)nc1)c1cnccn1	-7%
Cc1cc2ncn(-c3ncnc4sc(C)c(C)c34)c2cc1C	14%
CC(C)(C)n1nc2c(c1NC(=O)c1ccc(F)c(F)c1)CS(=O)(=O)C2	-6%
CCN(CC(=O)Nc1ccccc1C(F)(F)F)C(=O)Cc1ccccc1	-7%
COc1cc(/C=C2\SC(=O)N(CC(=O)Nc3ccccc3F)C2=O)cc(Cl)c1O	15%
O=C(/C=C/c1ccccc1)NC(=S)Nc1ccccc1C(=O)NC1CCCCC1	4%
CNC(=O)c1c(NC(=O)c2cccc(N3C(=O)CCC3=O)c2)sc2c1CCC2	-7%
Cc1ccc(CSc2nnc(-c3ccco3)n2N)cc1	15%
Cc1ccc(O)cc1	3%
CC(=O)OC[C@H]1O[C@@](COC(C)=O)(O[C@H]2O[C@H](COC(C)=O)[C@@H](OC(C)=O)[C@H](OC(C)=O)[C@H]2OC(C)=O)[C@@H](OC(C)=O)[C@@H]1OC(C)=O	6%
CN(Cc1ccccc1)C(=O)c1cccc(NC(=O)Cc2ccc(NC(=O)C3CCCN(C(=O)c4ccccc4)C3)cc2)c1 (stereo not drawn)	0%
O=C(COC(=O)c1ccc(Cl)cc1[N+](=O)[O-])NNC(=O)c1cccs1	-16%
CC(C)(C)NC(=O)COC(=O)c1ccccc1Nc1ccc(SC(F)F)cc1	-4%
CN(Cc1ccccc1)C(=O)COc1ccc(N(C)S(=O)(=O)c2ccc(F)cc2)cc1	3%
Cc1ccc2nc(COc3cccc(NC(=O)c4cccc(Cl)c4)c3)cc(=O)n2c1	-3%
CCN(C(=O)Cc1nc(-c2ccc(OC)cc2)no1)c1cccc(Cl)c1	10%
N#Cc1ccc(COC(=O)CC(NC(N)=O)c2ccc(Cl)cc2)cc1 (stereo not drawn)	7%
COCCNC(=O)/C(C#N)=C/c1c(N2CCN(C)CC2)nc2c(C)cccn2c1=O	1%
O=S(=O)(/N=C(/Nc1cccc2ccccc12)c1ccc(F)cc1)c1ccccc1	6%
COC(=O)c1ccc(OC)c(CSc2nnc(-c3ccc(C(C)(C)C)cc3)o2)c1	-5%
C=C(C)COc1ccc(-c2[nH]ncc2Oc2cccc(OC)c2)c(O)c1	6%

An excerpt (hit frequency here may not be typical).
